# VDR inhibitor – Inhibitors of the vitamin D receptor (VDR): qHTS | VDR-SRC2-3 peptide fluorescence polarization, 2 h | 400,000 compounds, 0.93% hits | Vitamin D3 receptor (Homo sapiens), P11473 | Potency, µM, without a hit: max response, negative = inhibition, hits mostly inhibitors; active means well fitted inhibition curve with a large enough effect; inconclusive means small, poorly fitted or top-dose-only effect, or another doubt; inactive means no such curve, though single readings can be large or run the other way; further: series mostly up to about 120 µM
# Target sequence (P11473 whole entry, looked up): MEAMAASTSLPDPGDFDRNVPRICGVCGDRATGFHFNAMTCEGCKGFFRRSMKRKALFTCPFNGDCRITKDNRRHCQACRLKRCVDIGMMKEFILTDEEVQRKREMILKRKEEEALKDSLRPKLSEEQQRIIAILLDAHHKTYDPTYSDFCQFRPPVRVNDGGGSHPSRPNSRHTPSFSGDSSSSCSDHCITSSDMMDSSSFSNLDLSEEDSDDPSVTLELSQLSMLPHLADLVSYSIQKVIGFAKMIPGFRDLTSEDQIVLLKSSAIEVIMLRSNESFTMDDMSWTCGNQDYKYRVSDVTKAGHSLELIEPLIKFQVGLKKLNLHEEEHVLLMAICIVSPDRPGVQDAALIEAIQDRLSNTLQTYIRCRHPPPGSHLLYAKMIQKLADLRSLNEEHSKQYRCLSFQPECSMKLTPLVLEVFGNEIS
#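 Two reagent solutions held at 4 deg C in the dark were dispensed, compounds pinned at 23 nl, and the mixture incubated 2 h at room temperature. Read-out: fluorescence polarization of VDR–SRC2-3 peptide binding.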
# Numbers without * were called inactive; u = inconclusive; & = joins results of further samples; ! = repeats disagree. On the % scale 0 is the no-effect control and ±100 the full control effect; potency means the concentration at half of the fitted maximal effect.
# Preview (3 entries):
mol | VDR inhibitor
C/C(=N\NC(=S)NC(C)C)c1ccc(-n2ccnc2)cc1 | 3.6%
CC(C)(C)CC(=O)Nc1ccc(C(N)=O)cc1 | -6.5%
COc1ccccc1/C=N/N1C(=O)c2cccc3cccc(c23)C1=O | 11.5%

# The listing (from the top)
mol | VDR inhibitor
C/C(=N\NC(=S)NC(C)C)c1ccc(-n2ccnc2)cc1 | 3.6%
CC(C)(C)CC(=O)Nc1ccc(C(N)=O)cc1 | -6.5%
COc1ccccc1/C=N/N1C(=O)c2cccc3cccc(c23)C1=O | 11.5%
CCOC(=O)c1c(NC(=O)COc2cccc3c2CCN(C)C3=O)sc2c1CCC2 | -8.2%
O=C(NCC(c1cccs1)S(=O)(=O)c1cccs1)c1c(F)cccc1F (stereo unspecified) | 4.0%
OC1CC2CCC(C1)N2CCCN1c2ccccc2Sc2ccc(Cl)cc21 (stereo unspecified) | -19.3%
COCCNc1nc(SCC(=O)N2CCN(c3ccccc3)CC2)nc2ccccc12 | -2.0%
CCOC(=O)c1sc(NC(=O)CN2C(=O)NC3(CCCCCCC3)C2=O)c(C(=O)OCC)c1C | -11.2%
Cc1ccc(C2C3=C(CCCC3=O)N=C3c4ccccc4C(=O)C32)cc1 (stereo unspecified) | -6.8%
CC1=C(\C=C/C(C)=C/C=C\C(C)=C\C(=O)O)C(C)(C)CCC1 | 17.8µM*
C=CCN(C(=O)CNC(=O)c1ccco1)C(C(=O)NC1CCCCC1)c1ccc(OC)cc1 (stereo unspecified) | -10.2%
Nc1cc(C(F)(F)F)ccc1S(=O)(=O)Nc1cccc2c1NCCC2 | -6.5%
O=C(NC1CCc2ccccc21)C12CN(Cc3ccccc3)CC1C(c1cccc([N+](=O)[O-])c1)=NO2 (stereo unspecified) | -5.6%
Cc1ccc(C(=O)O/N=C(\N)Cc2ccc([N+](=O)[O-])cc2)c(Cl)c1 | -5.1%
COc1cccc(-c2ccc(SCC(=O)NCCc3ccccc3)nn2)c1 | 9.6%
CC(C)(C)c1cc(CN2CCCC(O)C2)c(O)c(C(C)(C)C)c1 (stereo unspecified) | 1.3%
CCN1CNC(=S)N(CCc2ccccc2)C1 | -8.2%
OC(c1nc2ccccc2[nH]1)C(O)C(O)C(O)c1nc2ccccc2[nH]1 (stereo unspecified) | -21.7%
COc1ccc(-n2c(=O)c3c4c(sc3n(Cc3ccc(C(C)(C)C)cc3)c2=O)CCC4)c(OC)c1 | -11.2%
O=[N+]([O-])c1ccc(CSc2nc3ccccc3o2)cc1 | 0.2%
CC1CN(C(=O)C2CC2)C(C)CN1C(=O)C1CC1 (stereo unspecified) | -13.7%
CNC(=O)Oc1ccc2c(c1)[C@@]1(C)CCN(C)C1N2C (stereo partly specified) | -11.6%&-10.7%&10.1%
CC(C)c1ccccc1NC(=O)CN1C(=O)c2cccc3cccc1c23 | -19.4%
O=C(c1ccc(S(=O)(=O)Cc2ccccc2F)c([N+](=O)[O-])c1)N1CCCCCC1 | -10.1%
CCc1ccc(CN2CCc3nc(Nc4ccccc4)ncc3C2)cc1 | 2.0%
CC(C)COC(=O)N(C)c1ccc(C(O)(C(F)(F)F)C(F)(F)F)cc1 | 11.5%
O=C(c1ccccc1)N(Cc1cccs1)C1CCS(=O)(=O)C1 (stereo unspecified) | -3.3%
COc1ccc(-c2noc(CSc3nnc(C)n3-c3cccc(C)c3)n2)cc1 | 13.2%
COc1ccc(C)cc1NC(=O)c1ccccc1NS(=O)(=O)c1cccc2cccnc12 | -19.9%
Cc1ccc2nc(-c3ccncc3)c(Nc3ccc(C(C)C)cc3)n2c1 | -16.2%

# Of the compounds above, these have a Cl atom.
mol | VDR inhibitor
OC1CC2CCC(C1)N2CCCN1c2ccccc2Sc2ccc(Cl)cc21 (stereo unspecified) | -19.3%
Cc1ccc(C(=O)O/N=C(\N)Cc2ccc([N+](=O)[O-])cc2)c(Cl)c1 | -5.1%

# (listing goes on)
mol | VDR inhibitor
Cc1ccccc1OCC(=O)Nc1ccc(S(=O)(=O)Nc2ncccn2)cc1 | 6.1%
CCOC(=O)c1c(C)c(C(=O)NCCc2ccc(OC)cc2)c(C)n1C | -6.2%
C/C=C/Cn1cccc(C(=O)Nc2ccc(OC)cc2)c1=O | 8.6%
Cc1ccc(N(CC(=O)NCC2CCCO2)C(=O)CCC(=O)Nc2cc(C)on2)cc1 (stereo unspecified) | -22.9%
CCOC(=O)c1sc(-c2ccc(OC)cc2)cc1NC(C)=O | -0.2%
COc1ccc(OC)c(NC(=O)CSc2ncccc2C(=O)O)c1 | -1.1%
Cc1cc(=O)oc2cc(NC(=O)c3ccc(OC(F)F)cc3)ccc12 | 10.3%
N#Cc1cccc(-c2cc(NCc3cccs3)ncn2)c1 | 5.1%
CCC[C@@H](CN1CCC[C@H]1CN1C(N)=NC[C@@H]1Cc1ccccc1)N1C[C@@H]([C@H](C)CC)N(CCCC2CCCC2)C1=N | 2.6%
O=C(NCCCn1ccnc1)/C(=C/c1ccco1)NC(=O)c1cccs1 | -9.9%
NS(=O)(=O)c1ccc(N=Nc2ccc(O)c3ncccc23)cc1 | -16.1%
CC1CCN(CC(=O)Nc2ccc(C(=O)N3CCCCC3)cc2)CC1 | 5.7%
CC(=O)c1cc2c(cc1NC(=O)Nc1cccc(Cl)c1)OCCO2 | 8.0%
CCc1ccc(NC(=O)C2CCN(c3nn4c(=O)cc(C)nc4s3)CC2)cc1 | 7.1%
CC(=O)Nc1ccc2c(COC(=O)CC3Sc4ccccc4NC3=O)cc(=O)oc2c1 (stereo unspecified) | 0.0%
CCCCn1c(N)c(N(CC(C)C)C(=O)CSc2nnc(C)n2-c2ccccc2)c(=O)[nH]c1=O | -7.0%
CCN(C(=O)c1ccco1)c1nc(-c2ccc(OC)cc2)cs1 | -6.7%
COc1ccc(Cl)cc1NC(=O)C(C)Sc1nc2c(c(=O)[nH]1)CCCC2 (stereo unspecified) | 6.0%
c1ccc2sc(N3CCN(Cc4nnnn4CC4CCCO4)CC3)nc2c1 (stereo unspecified) | -5.5%
CN(C)/C=C/C(=O)c1ccc(S(=O)c2ccccc2)cc1 (stereo unspecified) | 4.4%
COc1ccc(OC)c(NC(=O)C(C)Oc2ccc(Br)cc2)c1 (stereo unspecified) | -10.3%
C/C(=N\NC(=O)c1cc(O)cc(O)c1)c1ccc(NC(=O)Cc2ccccc2)cc1 | 1.7%
CCn1c(C)nc2cc(C(=O)NNC(=O)c3ccc(C)cc3)ccc21 | -7.0%
Nc1cccc2c1C(=O)N(C(=O)c1ccc(Cl)c(S(=O)(=O)N3CCCCCC3)c1)C2=O | u
CCOc1ncccc1C(=O)OCC(=O)N1CCC(C)CC1 | -1.7%
CC(=O)c1ccc(N2CCCCCC2)c(F)c1 | -8.6%
O=c1cc[nH]c2c(Cl)cccc12 | -1.0%
Cc1ccc(C)c(N2CCN(C(=O)c3ccc4c(c3)c(C)c(C)n4C)CC2)c1 | 4.0%&12.2%
CCOc1ccc(NC(=O)CCn2c(=O)[nH]c3ccsc3c2=O)cc1 | -7.6%
CCOC(=O)C(c1ccccc1)C(Nc1ccc(Cl)c(Cl)c1)c1ccccn1 (stereo unspecified) | -7.7%
CN(C)c1cccc2cccc(N(C)C)c12 | -12.9%
COc1ccc(NC(=O)Nc2nc3c(s2)CCCC3)cc1 | -8.0%
COc1ccc2c(c1OC)CN1CCc3cc4c(cc3[C@@H]1[C@@H]2O)OCO4 | 10.5%
COCC(C)n1c(C)cc(C(=O)COC(=O)c2cc(=O)[nH]c3ccccc23)c1C (stereo unspecified) | u
COc1ccc(C(=O)Nc2cc(C(F)(F)F)ccc2N2CCN(c3ccccc3)CC2)cc1OC | 1.2%
Cc1cc(NS(=O)(=O)c2ccc(NC(=O)CCCOc3ccccc3C)cc2)nc(C)n1 | u
Cc1onc(-c2ccccc2)c1C(=O)NCCSCc1ccco1 | -8.5%
CCN(CC)c1ccc(/C=N/Nc2nc(C)cc(=O)[nH]2)c(O)c1 | -0.7%
CC(C)C(=O)Nc1ccc(C(=O)c2ccccc2)cc1 | 2.2%
Cc1c(NC(=O)c2cc3nc(-c4ccc(Br)cc4)cc(C(F)(F)F)n3n2)c(=O)n(-c2ccccc2)n1C | 6.1%
C=CCn1c(CCNC(=O)C(C)(C)C)nc2ccccc21 | -15.7%
Cc1cc(C)c2oc(-c3cccc(NC(=O)COc4ccccc4Cl)c3C)nc2c1 | -15.3%
Nc1c(Cl)cc(-c2csc(NCCc3nc4cc(Cl)c(Cl)cc4n3CCCO)n2)cc1Cl | -13.4%
CCc1cc(=O)oc2cc(C)c(CN3CCCC3)c(O)c12 | -14.1%
Cc1nc(NC(=O)c2ccc(OCC(C)C)cc2)sc1Cc1ccc2c(c1)OCO2 | 7.8%
CCCNC(=O)CN1C(=O)NC(CCc2ccccc2)C1=O (stereo unspecified) | -10.9%
CCN1CCN(C(=O)C2=CC(c3ccc(OC)cc3)=NS(=O)(=O)N2C)CC1 | 12.3%
Cc1ccc(Cl)cc1N1CCN(S(=O)(=O)c2cc3c(cc2C)NC(=O)CO3)CC1 | 1.6%
Cc1ccc(NCc2ccc(O)c3ncccc23)cc1 | u
O=C(c1ccncc1)N1CCC2(CCCN(Cc3ccccc3)C2)CC1 | -7.5%
CN(C)CCN1CC(C(=O)O)CC1=O (stereo unspecified) | -1.4%
Cn1cncc1C#Cc1c(-c2ccsc2)sc2ccccc12 | -12.0%
Cc1nc(N2C(=O)c3oc4ccccc4c(=O)c3C2c2cccc(OCCC(C)C)c2)sc1C (stereo unspecified) | -7.4%
O=C(O)c1cc(-c2ccco2)nc2ccc(Br)cc12 | 20µM*!
c1ccc(Cc2noc(CN3CCN(CCOc4ccccc4)CC3)n2)cc1 | -16.0%
COc1ccc(/C(N)=N/OC(=O)c2ccc([N+](=O)[O-])c(C)c2)cc1OC | -10.1%
O=C(N/N=C/c1cc2c3c(c1O)CCCN3CCC2)c1ccccc1O | -17.5%
CCCNC(=S)N(Cc1cc2cc(C)ccc2n2nnnc12)CC(C)(C)CN(C)C | 21.7%
Fc1ccc(CN2CCN(c3ncnc4scc(-c5ccccc5)c34)CC2)cc1 | 16.5%
O=C(COC(=O)c1c(F)cccc1F)NCCNC(=O)COC(=O)c1c(F)cccc1F | -13.8%

# The list goes on.
mol | VDR inhibitor
COc1ccc(OC)c(C(=O)c2oc3ccccc3c2NC(C)=O)c1 | 15.6%
CC(C)NC(=O)c1ccc(-n2c(-c3ccccc3)cc3c2CCCCC3)cc1 | -1.2%
O=C(O)c1ccc(Cl)c(NCc2cccnc2)c1 | 0.0%
CCN(CC)C(=O)[C@H]1C[C@H](CC(=O)NC(C)(C)C)C(=O)N2CCc3c([nH]c4cc(-c5ccco5)ccc34)[C@]12C | 5.9%
O=C(NC1CCCCC1)C1CCN(C(=O)c2ccccc2Cl)CC1 | 9.5%
COc1ccccc1NC(=S)NCCc1ccc(OC)c(OC)c1 | -4.5%
O=C(N/N=C/c1ccc([N+](=O)[O-])o1)c1cn(-c2ccccc2)nc1-c1ccc(Cl)cc1 | -3.2%
Nc1scc2c(C(=O)O)nn(-c3ccccc3)c(=O)c12 | u
Clc1ccc(-n2nnnc2-c2ccccc2)cc1 | 2.5%
Cn1cc(SCC(=O)NCC2CCCO2)c2ccccc21 (stereo unspecified) | -1.9%
CN(C)c1ccc(/C=N/NC(=O)c2ccc3c(c2)OCO3)cc1 | -0.8%
NNC(=O)c1ccc(CSc2n[nH]c(=O)[nH]c2=O)cc1 | 2.7%
Cn1c(Nc2cccc(Cl)c2)nc2ccccc21 | -7.7%
COc1cc(C2CC(c3cccs3)=NN2C(=O)CCl)ccc1OC(F)F (stereo unspecified) | u
CCN1CCN(c2ccc(S(=O)(=O)N3CCCCC3)cc2NC(=O)c2cccc(C(F)(F)F)c2)CC1 | -24.4%
CN(C)S(=O)(=O)N1CCN(C(=O)N2CCOCC2)CC1 | 6.0%
CCn1cc(CNC(=O)c2ccc3nc(Cc4ccccc4F)oc3c2)cn1 | -2.5%
CCC1(c2ccccc2)NC(=O)N(CC(=O)Nc2cc(S(=O)(=O)N3CCCCC3)ccc2OC(C)C)C1=O (stereo unspecified) | 7.2%
CC(=O)c1cccc(NC(=O)C(C)OC(=O)CCn2c(C)csc2=O)c1 (stereo unspecified) | 4.4%
Cc1ccc(Cl)cc1N1CCN(C(=O)c2cc3c(=O)[nH]c4ccccc4c3n2C)CC1 | -14.5%
COc1ccc(-c2sc3cc(OC)c(OC)cc3c2C#CCCO)cc1 | 3.5%
CCN1C(=O)/C(=C\N2CCN(c3cccc(Cl)c3)CC2)SC1=S | 7.7%
O=c1[nH]c2cc3c(cc2cc1C(c1nnnn1Cc1ccccc1)N1CCCCCC1)OCCO3 (stereo unspecified) | 10.5%
CCOc1cc(NC(=O)c2cccs2)c(OCC)cc1NC(=O)CCC(=O)NCCN1CCOCC1 | 8.7%
COc1ccc(NC(=O)c2cc(-c3ccncc3)nc3ccccc23)c(OC)c1 | 7.3%
O=C(Nc1nncs1)C1(c2ccccc2)CCCC1 | 1.9%
O=C(Nc1ccccc1Oc1ccccc1)c1ccc(Br)o1 | -14.3%
Cc1ccc(N2CCN(C(=O)c3cn(C)c4ccc(S(=O)(=O)N(C)C5CCCCC5)cc4c3=O)CC2C)cc1 (stereo unspecified) | -2.9%
Nc1nc(Cl)cc(Sc2ccc(F)cc2)n1 | 7.3%
CC(C)C[C@H]1CN=C(Nc2ccccc2)N1CC1CCC(C(C)(C)C)CC1 (stereo partly specified) | 2.0%
CCN1CCN(C(c2cccc(OC)c2)c2c(O)cc(C)n(Cc3ccco3)c2=O)CC1 (stereo unspecified) | -9.2%
COc1ccc(-c2cc(C(=O)NCC3CCCO3)c3cc(C)ccc3n2)cc1 (stereo unspecified) | 18.2%

# From PubChem

# Only part of the results is shown; rates above refer to the full screens.
